From PubChem
RE007 growth inh = qHTS Assay for Inhibitors of the HIV-1 protein Vpr; S. pombe RE007 Vpr strain, BacTiter-Glo ATP luminescence, 24 h; control for the full effect not named in the record; Potency, µM (doses to about 92.2 µM), without a hit: top-dose activity change, negative = less growth; hit rate 0.21% among 360,000; AID 651644, 2012; active = well fitted falling curve with a large enough effect; inconclusive = small, poorly fitted or top-dose-only effect; inactive = no such curve, though single readings can be large or run the other way;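 note: % is set by controls: 0 for no effect and ±100 for the full control effect; nearly all actives have a fitted effect of over 50% in size; the assay follows cell death caused by Vpr and the record does not say whether a fall means rescue or toxicity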
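Fission yeast strain RE007, carrying one chromosomally integrated HIV-1 vpr copy, was seeded at OD 0.01 in PMG+AL medium with 23 nL pinned compound. After 24 h at 30 °C and 99% humidity, viability was read by BacTiter-Glo luminescence.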
NS1 inh = qHTS Assay for Inhibitors of Influenza NS1 Protein Function; AID 2326, 2010; Potency, µM (series often up to 46.1 µM), without a hit: at the highest dose activity, positive = more growth; hit rate 0.4% among 270,000; S. cerevisiae slowed by influenza A NS1, growth recovery by OD600; active means well fitted rising curve with a large enough effect; inconclusive means small, poorly fitted or top-dose-only effect; inactive means no such curve, though single readings can be large or run the other way; note: nearly all actives have a fitted effect of over 50% in size
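In this qHTS, NS1 from influenza A is expressed in budding yeast, where it slows growth. Cells are switched from glucose to 2% galactose medium (pH 6.0, -URA), treated with compound, and growth recovery is read at OD600.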
Lassa entry inh = qHTS for Inhibitors of binding or entry into cells for Lassa Virus; Lassa virus pseudotype entry inhibition, cell reporter; control for the full effect not named in the record; hit rate 1.2% among 300,000; Potency, µM (top dose mostly 37.9 µM), for inactives: at the highest dose activity change, negative = inhibition, most hits filed as inhibitors; active means well fitted inhibition curve with a large enough effect; inconclusive means small, poorly fitted or top-dose-only effect, or effect the other way; inactive means flat fitted curve, though single readings scatter; tested in HEK293 cells; note: % is set by controls: 0 for no effect and ±100 for the full control effect; nearly all actives have a fitted effect of over 50% in size; luciferase read-out
SARS PLpro yeast = qHTS of Yeast-based Assay for SARS-CoV PLP | S. cerevisiae expressing SARS-CoV PLpro, growth rescue; control for the full effect not named in the record | Potency, µM (titrated, usually from 32.9 µM), for inactives: at the top dose activity, positive = growth rescue | hit rate 0.19% among 330,000; active means well fitted rising curve with a large enough effect; inconclusive means small, poorly fitted or top-dose-only effect; inactive means no such curve, though single readings can be large or run the other way; note: 0% is about no effect; nearly all actives have a fitted effect of over 55% in size; growth read by luminescence after 48 h
Cruzain inh noDet = qHTS Assay for Promiscuous and Specific Inhibitors of Cruzain (without detergent); purified cruzain, Z-FR-AMC fluorescence, no detergent; Potency, µM, inactives show max response, negative = inhibition, hits mostly inhibitors; hit rate 2.3% among 200,000;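 note: plate controls were enzyme without inhibitor for no effect and buffer without enzyme for full effect; nearly all actives have a fitted effect of over 40% in size; top concentration of the series not given in the record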
Target sequence (P25779 123-467 limits assumed): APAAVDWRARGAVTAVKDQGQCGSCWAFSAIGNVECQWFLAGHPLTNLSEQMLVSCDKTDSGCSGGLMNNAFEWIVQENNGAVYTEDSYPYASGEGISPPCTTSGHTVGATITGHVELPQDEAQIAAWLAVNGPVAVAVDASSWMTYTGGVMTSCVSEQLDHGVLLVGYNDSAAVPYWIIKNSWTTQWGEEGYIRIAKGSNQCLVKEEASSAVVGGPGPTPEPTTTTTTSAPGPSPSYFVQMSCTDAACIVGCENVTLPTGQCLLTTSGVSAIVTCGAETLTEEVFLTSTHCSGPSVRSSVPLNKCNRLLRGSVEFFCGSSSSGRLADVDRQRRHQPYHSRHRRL
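Purified cruzain at 1.5 nM, pre-incubated 15 min with compound at room temperature in 100 mM sodium acetate pH 5.5, 5 mM DTT, 0.00005% Triton X-100. Reaction started with 2 uM Z-FR-AMC; AMC fluorescence increase over 60 s gives rate.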
2A StopGo = High Throughput Screening for Foot and Mouth Disease Virus Antivirals; Potency, µM (series often up to 57.9 µM), inactives show top-dose signal change, negative = less light; AID 1159524, 2015; human cells with a luciferase reporter of 2A StopGo recoding; control for the full effect not named in the record; hit rate 1.2% among 410,000; active = well fitted falling curve with a large enough effect; inconclusive = small, poorly fitted or top-dose-only effect; inactive = no such curve, though single readings can be large or run the other way; tested in HEK293T cells; note: % is set by controls: 0 for no effect and ±100 for the full control effect; nearly all actives have a fitted effect of over 45% in size; luciferase light after 4 h
Cruzain Triton = qHTS Assay for Promiscuous and Specific Inhibitors of Cruzain (with detergent) | Cruzipain (Trypanosoma cruzi), P25779 | purified cruzain, Z-FR-AMC fluorescence, 0.01% Triton | Potency, µM, for inactives: max response, negative = inhibition, hits mostly inhibitors | hit rate 0.43% among 200,000;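 note: plate controls were neutral wells for no effect and buffer without enzyme for full effect; nearly all actives have a fitted effect of over 40% in size; top concentration of the series not given in the record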
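In this qHTS format, compounds are incubated with 1.5 nM cruzain for 15 min at room temperature before 2 uM Z-FR-AMC is added. Release of AMC is followed at 360/450 nm, and progress is taken as the 60 s fluorescence difference.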
Marburg entry inh = qHTS for inhibitors of binding or entry into cells for Marburg Virus; Marburg virus pseudotyped entry inhibition, cell reporter; control for the full effect not named in the record; about a third of the inactives were read at about 46 µM; AID 540276, 2011; Potency, µM (top dose mostly 37.8 µM), inactives show at the highest dose activity change, negative = inhibition, hits mostly inhibitors; hit rate 1.8% among 300,000; active = well fitted inhibition curve with a large enough effect; inconclusive = small, poorly fitted or top-dose-only effect, or effect the other way; inactive = flat fitted curve, though single readings scatter; tested in HEK293 cells; about a fifth of its hits are not listed in these tables; note: % is set by controls: 0 for no effect and ±100 for the full control effect; luciferase read-out
Numbers without * were called inactive; ? = inconclusive; . = not tested or not shown; & = joins results of further samples; [ ] = dose if it differs, or a comment. Unless noted, calls come from the whole dose curve; as a rule, active = well fitted curve in the direction sought with a large enough effect; inconclusive = small, poorly fitted or top-dose-only effect, or another doubt; inactive = no such curve, though single readings can be large; an effect the other way counts as inactive or inconclusive. Potency is the fitted concentration of half-maximal effect.

SMILES	RE007 growth inh	NS1 inh	Lassa entry inh	SARS PLpro yeast	Cruzain inh noDet	2A StopGo	Cruzain Triton	Marburg entry inh
COc1ccccc1-c1nc(C#N)c(N2CCN(Cc3ccccc3)CC2)o1	0.5%	-82.1%	-21.7%	-12.8%	-2.0%	?	-18.8%	-22.9%
CN(C)Cc1c[nH]c2nc[nH]c(=O)c12	0.5%	-9.3%	0.7%[46.1 µM]	.	3.3%	-6.9%	1.9%	-8.1%[46.1 µM]
C(=NN1CCCCCC1)c1ccc2ccccc2n1	?	.	?	.	.	100µM*	.	2.51µM*
CC(C)c1ccc(CNC(=O)c2ccc(N3CCCC3)c(NC(=O)NCc3ccccc3)c2)cc1	.	.	?	.	?	-27.3%	-4.8%	.
CC1(C)Cc2ccccc2C(=NCC(=O)O)N1	-5.3%	0.7%	6.4%	1.5%	.	1.0%	.	19.5%[14.2 µM]
Cc1cc(NC(=O)CSc2nc3ccccc3n2CC(=O)N2CCCCC2)no1	3.8%	-2.8%	-19.9%	4.2%	-4.5%	4.2%	1.2%	-12.6%
Cc1nc(-c2ccc(S(=O)(=O)N(C)Cc3ccccc3)cc2)co1	.	.	27.9%[46.1 µM]	.	-5.3%	-42.2%	-4.0%	.
CC(=O)Nc1ccc(OCC(O)Cn2cnc3ccccc32)cc1 (stereo unspecified)	-1.4%	-7.0%	2.7%	8.0%	-5.4%	10.6%	-3.9%	-6.5%[46.1 µM]
Cc1nc(N2CCN(c3ccccn3)CC2)c2c(C)c(C(=O)Nc3ccc(F)c(Cl)c3)sc2n1	-2.8%	-9.2%	?	-3.2%	.	-15.5%	.	?
COc1ccccc1NC(=O)C(=O)N/N=C(\C)CC(=O)Nc1ccc(OCc2ccccc2)cc1	6.2%	6.2%	-14.2%	-9.0%	-4.1%	2.9%	-2.3%	14.1%
Cc1ccc2nnnc(-c3ccccc3)c2c1	0.4%	-16.4%	-14.8%	7.3%	5.0%	-13.8%	-3.6%	25.5%
Cc1cc(C)cc(NC(=O)Cc2c(C(=O)O)c(C)cn2C)c1	.	.	-16.5%[46.1 µM]	.	-0.7%	-6.6%	-1.5%	.
CCOc1ccccc1/C=C(/NC(=O)c1ccccc1)C(=O)N1CCCCC1	-10.8%	-2.7%	4.2%	-0.9%	.	-1.2%	.	8.6%
COc1ccc(CCN(C)CC(=O)Nc2c(C)cc(C)cc2C)cc1OC	17.0%	7.7%	.	-0.8%	.	-14.6%	.	.
CCOC(=O)C1CCCN(C(=O)CN2C(=O)NC(C)(c3ccc4ccccc4c3)C2=O)C1 (stereo unspecified)	15.3%	.	-0.2%	-4.9%	.	-23.8%	.	12.2%
CCOC(=O)c1cc(C#N)c(N2CCN(C(=O)c3cccc(C(F)(F)F)c3)CC2)nc1C(F)(F)F	-6.1%	12.4%	1.78µM*	2.0%	.	-39.4%	.	5.01µM*
O=C(CSc1ccc2nc(-c3ccccc3)cn2n1)Nc1ccccc1C(F)(F)F	.	.	24.8%[46.1 µM]	.	-9.4%	26.5%	-0.1%	.
COc1ccc(C2=Nc3ccccc3NC(c3cccs3)=N2)cc1	.	.	8.1%[46.1 µM]	.	0.6%	-2.4%	-5.7%	20µM*
Cc1cccc(N2CC(C(=O)OCC(=O)c3ccc(OC(=O)c4cccs4)cc3)CC2=O)c1C (stereo unspecified)	28.9%	-3.6%	1.2%	5.4%	23.0%	28.5%	-1.4%	9.2%
CC(C)N(CCCNC(=O)CC1Oc2ccccc2NC1=O)Cc1ccccc1 (stereo unspecified)	7.9%	-6.0%	.	-1.5%	-11.8%	-11.5%	0.8%	.
CCn1cc(C(=O)NCc2ccc(Cl)cc2)c(=O)c2cc(S(=O)(=O)N3CCOCC3)ccc21	-9.0%	-73.4%	.	6.0%	?	-9.2%	-6.5%	.
COc1ccc(Cn2c(=O)c3oc4ccccc4c3n(Cc3ccc(F)cc3)c2=O)cc1	.	.	20.7%[46.1 µM]	.	-0.6%	-12.2%	-1.0%	.
NNc1nc(-c2ccccc2)cc(-c2ccc(Br)cc2)n1	-6.0%	-8.0%	-22.1%[46.1 µM]	-9.8%	.	-7.6%	.	?
COCCNC(=O)CSc1nccn1Cc1ccc2c(c1)OCO2	11.6%	8.4%	-13.5%	0.9%	.	-6.2%	.	-2.8%
OCCc1ccc(O)c(-n2nc3ccccc3n2)c1	-20.2%	-7.2%	-3.3%[46.1 µM]	-3.9%	.	47.9%[activator]	.	?
SMILES	RE007 growth inh	NS1 inh	Lassa entry inh	SARS PLpro yeast	Cruzain inh noDet	2A StopGo	Cruzain Triton	Marburg entry inh
COCC(=O)Nc1c(C(=O)N2CCCC2)oc2ccccc12	-17.4%	1.0%	4.4%[46.1 µM]	0.1%	.	-0.7%	.	?
CCCN(Cc1nnc(-c2ccccc2Cl)o1)C(=O)c1oc2ccccc2c1C	-2.0%	.	?	.	.	-13.1%	.	?
CN(C)CCNC(=O)c1ccc(-c2nn(C)c(=O)c3ccccc23)cc1	0.4%[3.69 µM]	4.4%	1.7%[46.1 µM]	-2.5%	-4.3%&-2.8%	2.9%&19.2%	4.4%&0.6%	-8.0%[46.1 µM]
COc1ccc(N2C(=O)CCC(C(=O)c3ccccc3)=C2C)cc1	2.3%	-11.3%	-1.1%	6.8%	0.2%	?	-0.3%	?
CCCOc1ccc(N2C(=O)CC(NCC(=O)OCC)C2=O)cc1 (stereo unspecified)	-17.3%	.	-7.9%[46.1 µM]	.	.	-15.7%	.	15.9%[46.1 µM]
Cc1cccc(OCCOC(=O)c2c(-c3ccccc3)noc2C)c1	-4.4%	4.4%	?	-4.9%	.	4.4%	.	?
O=C(COC(=O)CCC1CCCCC1)Nc1ccc(OC(F)F)cc1	7.6%	-4.0%	6.4%	-4.4%	1.6%	7.1%	-6.5%	-12.5%[46.1 µM]
CC(C)(C)c1ccc(CS(=O)(=O)CC2(O)CCN(C(=O)c3cccc(C(F)(F)F)c3)CC2)cc1	-16.5%[3.69 µM]	2.7%	-7.6%	-4.4%	2.4%	1.7%	8.0%	-26.4%
CCN(CC)CCNC(=O)c1cc(Sc2nnc(C)s2)nc2ccccc12	4.5%	-2.4%	1.8%	-3.0%	7.5%	-4.7%	-5.5%	?
O=C(c1ccc(Oc2ccc(C(F)(F)F)cc2[N+](=O)[O-])cc1)N1CCOCC1	.	3.2%	?	19.0%	18.4%	?	-1.7%	?
OC(CSc1c(Cl)cccc1Cl)CN1CCN(c2ccc(F)cc2)CC1 (stereo unspecified)	15.0%	-9.0%	-1.5%	-0.9%	0.9%	?	-11.2%	?
O=C(NCc1ccccc1)c1ccc(Cl)cc1[N+](=O)[O-]	-10.9%	2.7%	-0.4%	0.3%	4.1%	-2.0%	2.6%	-1.2%
CC1=C(C(=O)Nc2ccc(C)cc2C)C(c2ccc([N+](=O)[O-])cc2)n2ncnc2N1 (stereo unspecified)	1.9%	4.6%	26.4%	5.2%	-10.1%	-0.9%	6.7%	13.3%
O=C1CC(c2ccccc2)c2cc(O)ccc2O1 (stereo unspecified)	-1.0%	0.3%	-16.2%	-10.1%	-5.0%	.	-1.2%	-4.6%
Cc1ccccc1CS(=O)(=O)Cc1ccc(C(=O)NCC2CCCO2)o1 (stereo unspecified)	16.5%	?	25.0%	21.8%	-3.3%	-2.4%	2.5%	-0.8%
CCn1c(/N=C/c2ccccc2O)nc2ccccc21	-3.2%	4.6%	3.1%	6.8%	.	28.1%	.	-26.0%
N#CCCn1cc(C(=O)Nc2ccccc2Cl)c(-c2ccc(F)cc2)n1	-1.1%	-20.3%	-13.6%	-3.7%	.	-16.8%	.	?
CCCCOc1ccc(NC(=O)CSc2nnnn2C)cc1	10.4%	-7.5%	18.6%	.	-6.3%	.	3.4%	20.5%
O=C1CC(=C(c2ccccc2)c2ccccc2)C(=O)N1CCCN1CCN(c2cccc(Cl)c2)CC1	6.4%	14.0%	-11.7%	3.6%	?	?	-1.0%	?
CCCC(=O)Nc1cccc(-c2cn3ccsc3n2)c1	-9.7%	-7.7%	8.5%	1.6%	0.9%	40.3%[activator]	0.8%	19.2%
Cc1[nH]n(-c2ccccc2)c(=O)c1C=Nc1ccc(S(=O)(=O)Nc2nccs2)cc1	-6.6%	.	28.0%	-6.1%	.	-0.9%	.	-0.6%
COc1ccccc1CNC(=O)C(NS(=O)(=O)c1cccs1)C(C)C (stereo unspecified)	.	.	4.8%[46.1 µM]	.	-6.4%	-19.3%	-4.1%	?
CC(=O)Nc1cccc(-c2nnc(-c3ccccc3)o2)c1	-10.9%	-26.9%	0.5%	?	1.6%	-4.2%	-0.1%	?
CCOCCCNC(=O)C1CCN(c2cc(C)nc3c(-c4ccc(Cl)cc4)c(C)nn23)CC1	.	.	5.4%[46.1 µM]	.	11.1%	-24.4%	2.1%	1.8%[46.1 µM]
Cn1ncc(Cl)c1C(=O)N1CCN(c2ccccc2)CC1	11.5%	1.5%	.	-0.6%	.	-5.3%	.	.
CCOc1ccc(NCc2nnc(SCc3ccc(Cl)cc3)n2-c2ccccc2)cc1	.	-4.3%	?	-28.8%	9.3%	?	-8.2%	?
COc1ccc(CCNC(=O)CN(Cc2ccc(Cl)cc2)S(C)(=O)=O)cc1	-7.3%	-4.1%	.	2.1%	.	-22.1%	.	.
COc1ccc(CCNc2oc(-c3ccccc3OC)nc2C#N)cc1OC	-11.9%	-29.8%	-3.5%	-6.0%	-3.9%	-17.8%	-13.4%	-8.6%
Fc1cc(Cl)ccc1NC1=NCCCCC1	-21.7%	-1.0%	3.1%[46.1 µM]	1.2%	.	-13.7%	.	2.9%[46.1 µM]
Cc1cc(C(=O)NCc2cc(C)n(C)n2)sc1-c1ccccc1	3.5%	-34.3%	-28.5%	-3.9%	?	-23.8%	-8.3%	?
